CDC25B CDK2 inh – human CDC25B-CDK2/CyclinA binding inhibition | P30305+P24941 | HTRF CDC25B-CDK2/CyclinA binding, anti-His/anti-Flag; active compounds read high | z-score (concentration not given with the values) | 94,000 compounds, 0.72% hits;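 also: score is relative to mean and SD of negative controls; strong numbers were not always called active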
TAR Tat displ – HIV-1 TAR-Tat binding disruption. HIV-1 TAR RNA, Tat peptide displacement FRET; active compounds read high. z-score (concentration not given with the values). 100,000 compounds, 0.6% hits. AID 1259389;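 also: score is relative to mean and SD of negative controls; some compounds called inactive have numbers as strong as hits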
* marks the source's active call; other numbers are inactive results; . = not tested or not shown.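 The calls were made as follows: active = z-score from 3 up in half or more of its runs; inactive = the rest.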

| structure | TAR Tat displ | CDC25B CDK2 inh |
| --- | --- | --- |
| Cc1nn2cc(-c3ccccc3)cc2c2c(C)n(Cc3ccc4c(c3)OCO4)c(C)c12 | -1.4 | -2.8 |
| CCCCSC1=C(C#N)C(c2ccccc2Cl)CC(=O)N1 (centres undefined) | 0.75 | -1.2 |
| COc1ccc(C2C(=O)N(C3CCCCCC3)CC(=O)N2C2CCCC2)cc1 (centres undefined) | . | -1.8 |
| Fc1ccc(-c2noc3ncnc(N4CCCN(Cc5ccccc5Cl)C4)c23)cc1 | 0.07 | . |
| CNC(=O)c1ccc(N2CCOc3ccccc32)s1 | 2.3 | -3.1 |
| O=C(NCc1nc(-c2ccc(Cl)cc2)no1)NC1CCCCC1 | 1.7 | -2 |
| CC(C)C1C(=O)Nc2ccc(S(=O)(=O)N3CCC(Cc4ccccc4)CC3)cc21 (centres undefined) | 1.1 | . |
| Fc1ccc(C(c2nnc(-c3ccccc3)o2)N2CCN(Cc3ccccc3)CC2)cc1 (centres undefined) | -0.19 | . |
| CCCN1C(=O)C2(/C(=C(/O)c3ccc(C)cc3)C(=O)C(=O)N2CCN(C)C)c2ccccc21 (centres undefined) | -0.09 | -1.4 |
| CCOC(=O)c1sc2ccccc2c1S(=O)(=O)N1CCCCC1 | -0.81 | . |
| CCC(=O)N1c2ccccc2NC2=C(C(=O)CC(C)(C)C2)C1c1ccco1 (centres undefined) | 3.3 | . |
| S=C(NCc1ccco1)Nc1ccc(C2=NCCO2)cc1 | . | -2.5 |
| CC1(C)OC(=O)C(=Cc2cc3ccccc3o2)C(=O)O1 | . | -0.35 |
| CC(C)(C)C1CCc2onc(C(=O)N3CCCc4ccccc43)c2C1 (centres undefined) | 0.2 | -0.62 |
| O=C(CSc1ccc(-c2ccccn2)nn1)Nc1cccc(F)c1 | 1.9 | . |
| CC1CCN(C(=O)NC2COc3ccccc3C2)CC1 (centres undefined) | 0.39 | . |
| O=C(NC1CCCCC1)c1cc(-c2cccnc2)on1 | 0.2 | -0.27 |
| O=C(CCc1nc2sc3c(c2c(=O)[nH]1)CCCC3)N1CCN(c2cccc(Cl)c2)CC1 | -0.66 | . |
| O=S(=O)(c1ccc2c(c1)OCCO2)N1CCC(Oc2ccc(-n3cnnn3)cc2)CC1 | 1.4 | -1.1 |
| Cc1cc(Nc2ccccc2Cl)n2nc(-c3ccccc3)nc2n1 | 0.17 | -0.16 |
| COc1cc2c(cc1OC)C(c1ccsc1)CC(=O)N2 (centres undefined) | . | -2.1 |
| COc1ccc(CCN2N=NC3C(=O)N(c4ccc(OC)c(OC)c4)C(=O)C32)cc1 (centres undefined) | 0.7 | -1.1 |
| CC(C)(C)C(=O)NCc1n[nH]c(=O)c2ccccc12 | 1.2 | . |
| C=C[C@](C)(O)CCC=C(C)C | 1.9 | . |
| O=C(c1cc(-c2cccs2)on1)N1CCCC1c1ccco1 (centres undefined) | 0.32 | -1.2 |
| CCCSc1nnc(Cn2c(=O)sc3ccccc32)n1-c1ccccc1 | . | -0.53 |
| Cc1ccc(-c2nc(CN3N=NC4C(=O)N(c5cccc(Cl)c5)C(=O)C43)c(C)o2)cc1 (centres undefined) | 0.95 | . |
| CCN1C(=O)C2(c3ccccc31)C(C(=O)Nc1ccccc1OC)CC1CSCN12 (centres undefined) | -1.4 | . |
| Cc1ccc(Cl)cc1NC(=O)c1cnc2scc(C)n2c1=O | . | -1.8 |
| Cc1nn(-c2ccccc2Cl)c2nc(-c3ccco3)cc(C(F)(F)F)c12 | -3.9 | -1 |
| COc1ccc(-c2n[nH]c(C)c2-c2cnn(-c3ccccc3)c2)c(O)c1 | . | -2.5 |
| CCOC(=O)Cc1c(C)nc2cc(-c3ccc(C(C)(C)C)cc3)[nH]n2c1=O | . | -1.2 |
| CCCCc1c(O)nc2n(c1=O)CCCS2 | . | -0.17 |
| COc1cc(NC(=O)CCS(=O)(=O)c2cc3c(cc2Cl)NC(=O)CO3)cc(OC)c1 | 0.95 | . |
| CC(CCO)Nc1nc2c(c(=O)n(C)c(=O)n2C)n1Cc1ccc(Br)cc1 (centres undefined) | -2.8 | -0.83 |
| O=C1c2ccccc2C2N1CCCN2C(=O)c1sc2ccccc2c1Cl (centres undefined) | . | -1.1 |
| Cn1c(=O)c2c(nc(Cl)n2CC(=O)c2ccccc2)n(C)c1=O | 1.4 | -1.6 |
| O=C(c1ccc2c(c1)CCN2S(=O)(=O)c1ccc(Cl)cc1)N1CCOCC1 | 0.26 | -1.4 |
| Cc1ccc(S(=O)(=O)Nc2ccc(N3CCCS3(=O)=O)cc2)c(C)c1 | 1 | . |
| CNC(=O)c1c(NC(=O)c2ccc(S(=O)(=O)N(C)Cc3ccccc3)cc2)sc2c1CCC2 | -1.2 | . |
| N#Cc1nc(/C=C/c2ccc(Cl)cc2)oc1N1CCN(C(=O)c2cccs2)CC1 | 0.17 | -2.2 |
| CCS(=O)(=O)N1CCC2(CC1)OC(=O)C(C)=C2C(=O)N1CCN(C2CCCCC2)CC1 | 0.48 | . |
| CC(=O)Oc1ccc(C2OC(c3sccc3C)=NN2C(C)=O)cc1 (centres undefined) | 0.79 | . |
| O=c1c2nccnc2nc(SCc2cccc(F)c2)n1Cc1ccccc1 | 1.8 | -1.7 |
| CSc1nc(NCCO)c(C#N)c(-c2ccccc2)n1 | 1.2 | -0.28 |
| O=C(NCCCc1ccco1)c1cnc(N2CCOCC2)nc1 | 1.8 | . |
| CCN(CC)C(=O)c1c[nH]c2ccc(S(=O)(=O)N(C)c3ccc(Br)cc3)cc2c1=O | 1.1 | . |
| COc1ccc(CCN2CC(O)=C(c3nc4ccccc4s3)C2=N)cc1OC | 0.52 | -0.18 |
| O=S(=O)(c1ccc(F)c(F)c1)N1CCN(c2nc(-c3cccs3)ns2)CC1 | . | -2.8 |
| CCOCc1nnc(NC(=O)C2CC(=O)N(CCc3c[nH]c4ccc(Cl)cc34)C2)s1 (centres undefined) | -1.1 | 0.65 |
| O=C(c1cnn2cc(Br)cnc12)N1CCCC1c1ccco1 (centres undefined) | -0.27 | -1.2 |
| CCOC(=O)/C(C#N)=C/NCc1cccs1 | . | -2.2 |
| CCc1cc2c(cc3c(=O)n(CCCC(=O)NC4CCCCC4)ncn32)s1 | 1.2 | -2.6 |
| O=S1(=O)N=C(c2ccc(Cl)cc2)Nc2ccc(S(=O)(=O)N3CCCCC3)cc21 | 0.29 | . |
| N#Cc1ccc([N+](=O)[O-])s1 | . | -1.2 |
| CCOc1ccc(C2NC(=O)c3[nH]nc(-c4ccc(C)cc4)c32)cc1 (centres undefined) | 1.3 | . |
| Cc1ccc(CNC(=O)c2c(O)nc3cc(C)ccn3c2=O)cc1 | -1.5 | -0.8 |
| O=C(CCCC1=NS(=O)(=O)c2ccccc2N1)Nc1ccc(F)c(F)c1 | 1.5 | . |
| COc1ccc(-c2cc(-c3c(O)ccc4ccccc34)[nH]n2)cc1 | . | 0.99 |
| CCN(CC)S(=O)(=O)N1CCC(C(=O)NCCCOC)CC1 | 0.6 | . |

Additional compounds.
| structure | TAR Tat displ | CDC25B CDK2 inh |
| --- | --- | --- |
| CCCN(CCC)c1nn2c(=O)c(C(=O)NCc3ccc4c(c3)OCO4)cnc2s1 | 0.75 | . |
| Cc1cccn2c(=O)c3cc(C#N)c(=O)n(-c4cccc(Br)c4)c3nc12 | -0.44 | -3.1 |
| O=C(CN1N=NC2C(=O)N(c3ccccc3)C(=O)C21)Nc1cccc(Cl)c1 (centres undefined) | . | -1.6 |
| O=C(c1cccc(CN2CCN(c3nc(-c4ccccc4)ns3)CC2)c1)N1CCC(O)CC1 | . | -2.1 |
| COc1cc(NS(=O)(=O)c2c(C)nc3sc(C)cn3c2=O)cc(OC)c1 | 0.68 | . |
| Cc1ccc(-n2c(C)nnc2SCc2nc(-c3ccccc3C)no2)cc1C | 1.8 | 0.26 |
| CS(=O)(=O)N(c1cccc(C#N)c1)S(C)(=O)=O | . | 0.41 |
| Cc1cc2c3c([nH]c2cc1S(=O)(=O)NCCc1sccc1C)CCCC3=O | 0.57 | . |
| COc1ccc(OC)c(CN2CCc3nc(N4CCN(c5ccccn5)CC4)ncc3C2)c1 | 0.99 | . |
| CC(=O)N1CCCc2cc(S(=O)(=O)N3CCCC(C(=O)N4CCCC4)C3)ccc21 (centres undefined) | 0.53 | . |
| O=C(CN1C(=O)COc2ccc(S(=O)(=O)N3CCCC3)cc21)NC1CCCc2ccccc21 (centres undefined) | -1.5 | -2.2 |
| CC(=O)Nc1ccc(S(=O)(=O)[C@H]2CS(=O)(=O)C[C@@H]2N2CCN(c3ccccc3)CC2)cc1 | 0.29 | -1.9 |
| c1ccc(CN2CCc3nc(Nc4ccccc4)ncc3C2)cc1 | 0.68 | . |
| CCOC(=O)NC(=O)/C(=C/NCc1cccs1)C(=O)OCC | . | -2.9 |
| Cc1cc(C(=O)CSc2ncnc3sc4c(c23)CCCC4)c(C)n1Cc1ccco1 | . | -0.11 |
| Nc1c(N2CCSCC2)c(=O)c1=O | . | -2.1 |
| Cc1nc2ccc3nc(NC(=O)CN4C(=O)c5ccccc5C4=O)sc3c2s1 | . | 0.41 |
| O=C1CC(c2ccc3c(c2)OCO3)C2=C(CC(c3cccs3)CC2=O)N1 (centres undefined) | 0.61 | 0.79 |
| COc1ccc(C)cc1-n1nnc(S(=O)(=O)c2ccc(C)cc2)c1C | -0.38 | -3.2 |
| CSC1=C(C#N)C(=C(C#N)C#N)NC(c2ccccc2)=N1 | . | -2.6 |
| NC(=O)Cn1c(SC2CCCCC2)nc2ccccc21 | 1.3 | -0.13 |
| O=C(CCc1nnc(C(=O)Nc2ccc(F)cc2)s1)Nc1ccc(Cl)cc1 | 1.3 | . |
| O=S(=O)(c1ccccc1)c1cnc2cc3c(cc2c1N1CCN(c2ccccc2)CC1)OCCO3 | 2.5 | -1.1 |
| O=C(c1ccccc1F)N(Cc1ccccc1)C1CCS(=O)(=O)C1 (centres undefined) | 0.9 | -0.94 |
| Cc1ccc(-c2n[nH]c(=O)c3c2CCCC3)cc1S(=O)(=O)N(C)C1CCCCC1 | 1 | 1 |
| Cc1ccc(S(C)(=O)=NC(=O)CSc2ccc(C(F)(F)F)cn2)cc1 (centres undefined) | . | -1.1 |
| Cn1c(S(=O)(=O)O)nc2ccccc21 | . | 0.04 |
| Cc1ccc2nc(N3CCCC3)c3nnnn3c2c1 | 0.75 | . |
| COC(=O)c1ccccc1NC(=O)C1CC2CCCN2C12C(=O)N(C)c1ccccc12 (centres undefined) | -0.92 | . |
| CC(=O)N1c2ccc(S(=O)(=O)C(C)CC(=O)Nc3ccc(Cl)cc3)cc2CC1C (centres undefined) | 2 | . |
| CC(C)(Oc1ccc(Cl)cc1)C(=O)Nc1nnc2n1CCCS2 | 0.95 | . |
| CCOC(=O)N1CCN(C(=O)CSc2cc(=O)n(C)c3cc(Cl)ccc23)CC1 | -0.91 | -1 |
| CCCn1cc(S(=O)(=O)c2ccc(Cl)cc2)c(=O)c2cc(F)ccc21 | 1.1 | -3.1 |
| CC1=C(C(=O)Nc2cc(C)cc(C)c2)C2(CCN(C(C)C)CC2)OC1=O | 0.81 | . |
| O=C(Cn1cc(C(=O)c2ccco2)c2ccccc21)NC1CCCCC1 | -0.3 | -0.45 |
| Cc1ncc(-c2ccc(S(=O)(=O)N3CCN(c4ccc(F)cc4)CC3)cc2)o1 | 1.1 | . |
| COc1cccc(-c2cc3c(-n4cccc4)ncnc3o2)c1 | . | -1.5 |
| Cc1c(Br)sc2sc(-c3ccnc(SCC(=O)Nc4ccccc4)n3)c(C)c12 | . | -2.5 |
| Cc1cc(NS(=O)(=O)c2ccc(NC(=S)Nc3ccccc3C(F)(F)F)cc2)no1 | . | 0.72 |
| COCc1cc(C)nc2sc3c(c12)NC(C)N(Cc1ccco1)C3=O (centres undefined) | 1.2 | 0.55 |
| COc1ccc(Oc2coc3cc(OC(C)=O)ccc3c2=O)cc1 | -0.63 | 0.2 |
| Cc1c(N2CCN(S(=O)(=O)c3ccccc3)CC2)c(=O)n(C)c(=O)n1C | 1.4 | . |
| CN(C(=O)Cn1cc(S(=O)(=O)Cc2ccccc2)c2ccccc21)C1CCCCC1 | -1.1 | . |
| O=C(C1CCC(CNc2c(N3CCCCC3)c(=O)c2=O)CC1)N1CCc2ccccc21 (centres undefined) | . | -3.8 |
| Fc1ccc(-c2noc3ncnc(NCc4ccc5c(c4)OCO5)c23)cc1 | -0.45 | . |
| CC1=C(C(=O)OC(C)C)C(c2cc3c(cc2Br)OCO3)C2=C(CC(C)(C)CC2=O)N1 (centres undefined) | -0.97 | -2.4 |
| C#CCn1c(CCNC(C)=O)nc2ccccc21 | -0.38 | -0.76 |
| CC1CN(c2ccc(S(N)(=O)=O)cc2[N+](=O)[O-])CC(C)O1 (centres undefined) | . | -2.1 |
| CC(C)C(=O)N1CCN(c2ccc(NC(=O)c3nc(-n4cnnc4)ccc3Br)cc2)CC1 | 2.3 | . |
| O=C(NC1CCCCC1)c1cc2cccc3c2n1CCS3 | -5.7 | . |
| Cc1ccsc1CNCCSc1nnnn1C | 0.84 | -1 |
| CCOC(=O)C1=C(C)Nc2nc(SC)nn2C1c1ccc(C)cc1 (centres undefined) | . | 0.07 |
| CCN(CC)CCOC(=O)C1c2ccccc2Oc2ccccc21 | . | 1.8 |

A section from further up, as a working copy:
| structure | TAR Tat displ | CDC25B CDK2 inh |
| --- | --- | --- |
| Cc1nn2cc(-c3ccccc3)cc2c2c(C)n(Cc3ccc4c(c3)OCO4)c(C)c12 | -1.4 | -2.8 |
| CCCCSC1=C(C#N)C(c2ccccc2Cl)CC(=O)N1 (centres undefined) | 0.75 | -1.2 |
| COc1ccc(C2C(=O)N(C3CCCCCC3)CC(=O)N2C2CCCC2)cc1 (centres undefined) | . | -1.8 |
| Fc1ccc(-c2noc3ncnc(N4CCCN(Cc5ccccc5Cl)C4)c23)cc1 | 0.07 | . |
| CNC(=O)c1ccc(N2CCOc3ccccc32)s1 | 2.3 | -3.1 |
| O=C(NCc1nc(-c2ccc(Cl)cc2)no1)NC1CCCCC1 | 1.7 | -2 |
| CC(C)C1C(=O)Nc2ccc(S(=O)(=O)N3CCC(Cc4ccccc4)CC3)cc21 (centres undefined) | 1.1 | . |

Compound activity as filed in PubChem BioAssay.
